UCH37 inh = blocks the human deubiquitinase UCH37. purified proteasome/UCH37, Ub-AMC cleavage fluorescence. inhibition, % (concentration not given with the values). actives 0.33% (n = 330,000). AID 588478;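 active = mean of two replicates above 20%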;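 also: 0% = compound-free wells with enzyme and 100% = wells lacking proteasome; stock transfer was 100 nL into about 20 µL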
Target sequence (Q9Y5K5 whole entry, looked up): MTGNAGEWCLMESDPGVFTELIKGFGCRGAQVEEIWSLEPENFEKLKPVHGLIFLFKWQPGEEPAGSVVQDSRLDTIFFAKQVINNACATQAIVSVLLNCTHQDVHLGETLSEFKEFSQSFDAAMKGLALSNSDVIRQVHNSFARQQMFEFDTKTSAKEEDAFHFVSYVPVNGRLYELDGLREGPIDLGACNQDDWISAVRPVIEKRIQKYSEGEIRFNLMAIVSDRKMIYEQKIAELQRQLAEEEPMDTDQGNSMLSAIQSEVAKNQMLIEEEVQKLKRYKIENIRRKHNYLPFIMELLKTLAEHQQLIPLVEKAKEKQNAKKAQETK
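Material: Human UCH37 enzyme supplied as purified proteasome complex | Schedule: 30 min compound-proteasome preincubation then 25 min substrate reaction, room temperature | Detection: AMC fluorescence from Ub-AMC cleavage, excitation 355 nm, emission 460 nm | Benchmarks: Wells without proteasome as full block, compound-free enzyme plus substrate as uninhibited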
The depositor's hits bear a star. Not all compounds are listed; the hit share may differ from the screen's.

UCH37 inh	structure
6.9	Cc1ccc(-n2c(C)cc(C=NNC(=O)c3ccncc3)c2C)c(C)c1
2.1	CC(=O)N(C(C)=O)c1nc(-c2ccccc2)cn1N=Cc1cccc([N+](=O)[O-])c1
6.0	O=C(NN=Cc1cc([N+](=O)[O-])ccc1O)C12CC3CC(CC(C3)C1)C2
8.6	CC(=NNC(=O)C1CCCC1)c1ccc(Cl)cc1
-30	CCOc1ccc2[nH]c(C(=O)NN=Cc3cc(OC)c(OC)c(OC)c3)cc2c1
0.8	O=C(NN=Cc1ccco1)c1cc(-c2ccc(Br)s2)[nH]n1
1.7	CCn1ncc(C=NNS(=O)(=O)c2ccc(Cl)cc2)c1C
8.6	CCOC(=O)NN=C(C)/C=C/c1ccccc1
-1.7	CCCOc1ccc(CCC(=O)NN=Cc2ccco2)cc1
0.6	COc1ccccc1OCC(=O)NN=C/C=C/c1ccc([N+](=O)[O-])o1
2.6	COC(=O)C(=NNc1ccccc1C)Sc1nnc(C(O)c2ccccc2)n1-c1ccccc1 (stereo not given)
2.9	CC(C)c1ccc(C=Nn2c(-c3ccccc3)n[nH]c2=S)cc1
10	CCC(=O)N(C)CCc1cc2c(c(OC)c1C=NNC(=O)c1ccncc1)OCO2
4.6	CCOC(=O)C(=NNc1ccc(Cl)cc1)Sc1nnc(-c2ccc(OC)cc2)n1C
15	O=C(O)c1cccc(-c2ccc(C=NNc3nn[nH]n3)o2)c1
-8.2	O=c1c2ccccc2nc(COc2ccccc2)n1N=Cc1ccc(O)cc1O
2.7	Oc1ccccc1C=NNc1ccccc1
1.4	COc1ccccc1C=NNC(=O)C(C)Cn1cnc2ccccc21 (stereo not given)
-7.8	COc1ccc2nc(C)cc(SCC(=O)NN=Cc3ccc(O)cc3O)c2c1
7.9	Nc1nonc1-n1nnc(C(=O)NN=Cc2ccc(O)cc2)c1CN1CCCCCC1
-91	CCCCOC(=O)c1cc(-c2ccc(C=Nn3cnnc3)o2)ccc1Cl
6.4	O=[N+]([O-])c1ccc(C2CCCCC2=NOCc2cccc(F)c2)c([N+](=O)[O-])c1 (stereo not given)
6.1	O=C(NN=Cc1cccs1)c1ccccn1
2.7	O=C(NN=Cc1ccc(-c2cccc([N+](=O)[O-])c2)o1)c1ccccc1O
3.7	O=S(=O)(N=C([O-])C[n+]1ccccc1)c1ccc(Cl)cc1
-0.5	COc1ccc(C=NNC(=S)Nc2ccccc2)cc1COc1ccc(F)cc1
1.5	O=C(CCc1ccccc1)NCC(=O)NN=Cc1ccc2c(c1)OCO2
-13	COC(=O)c1scc(C)c1NN=C(C)c1ccc(F)cc1
2.1	Cc1cc(-c2n[nH]c(=S)n2N=Cc2ccc(Cl)c([N+](=O)[O-])c2)n[nH]1
-1.8	CCNC(=S)NN=Cc1ccc(OCC(=O)Nc2ccc(C)cc2)cc1
-20	O=C(Oc1ccc(C=NNC(=O)c2ccccn2)cc1)c1cccc(Br)c1
1.9	Brc1ccccc1C=NNc1ccc2ccccc2n1
6.4	Cc1ccc(C=c2sc3nc(-c4ccco4)nn3c2=O)o1
-1.4	COc1ccc(OCC(=O)NN=c2oc3c(OC)cccc3cc2C(N)=O)cc1
1.7	COc1ccc(OC)c(NC(=O)C(=O)NN=C(C)CC(=O)Nc2ccc(Cl)cn2)c1
13	COc1ccc(C(=O)NCC(=O)NN=Cc2ccc([N+](=O)[O-])s2)cc1OC
2.2	C=CCON=CC1C(=O)CC(C)(C)CC1=O
-10	COc1cccc(C=NNc2ncc(C)c(=O)[nH]2)c1OC
-4.2	CN=c1scc(C)n1N=Cc1cc(Br)c(O)c(OC)c1
2.2	CC(CC(=O)NCc1ccco1)=NNC(=O)C(c1ccccc1)c1ccccc1
17	N#CC(=NNc1ccc([N+](=O)[O-])cc1)C(=N)N1CCOCC1
3.5	O=C(O)c1ccccc1C=NNC(=O)C1CCCCC1
1.0	Cc1ccc(OC(C)C(=O)NN=Cc2ccccn2)cc1 (stereo not given)
-2.0	COc1cc(C=NNC(=O)C(Cc2c[nH]c3ccccc23)NC(=O)OCC(C)C)cc([N+](=O)[O-])c1OCc1ccccc1 (stereo not given)
1.7	O=C(NN=Cc1c[nH]c2ccccc12)c1sc2ccccc2c1Cl
5.7	Cc1cccc(C)c1-n1c(C)cc(C=NNC(=O)CC(=O)NC2CCCCC2)c1C
1.5	CCOc1cc(C(=O)NCC(=O)NN=Cc2sccc2C)cc(OCC)c1OCC
3.9	C(=NNc1nc2ccccc2[nH]1)c1ccc2ncccc2c1
4.0	CC(=NNC(=O)CCC(=O)NCc1ccccc1)c1ccc([N+](=O)[O-])cc1
-0.8	CC(=NOCc1ccccc1C#N)c1cc2ccccc2o1
9.4	NC(=O)c1cc2ccccc2oc1=NNC(=O)c1cccc(F)c1
0.9	COc1ccc(S(=O)(=O)NN=C(C)c2ccncc2)cc1OC
3.1	Cn1cc(C(=O)NN=Cc2cccc([N+](=O)[O-])c2)c2ccccc21
1.7	Cc1ccc2cc(C=NNC(=O)[C@@H]3CCCN3)c(Cl)nc2c1
0.9	CCCCCC=NNC(=O)c1[nH]c2ccc([N+](=O)[O-])cc2c1C
2.5	Cc1sc2ncn(N=Cc3ccco3)c(=O)c2c1C
4.7	COc1cc(C(=O)NN=C(C)Cn2nc([N+](=O)[O-])cc2C)ccc1O
3.7	CCN1C[C@@H]2[C@@H]3C(=O)N(C)C(=O)[C@@H]3[C@](CC)(C1=O)N2C(=O)c1ccc(C(F)(F)F)cc1
-60	C=CCc1c(C)nc(C)nc1NN=Cc1ccc(N(C)C)cc1
7.7	O=C(O)c1ccccc1C=NNC(=S)NCc1ccccc1

Next part.
UCH37 inh	structure
3.2	Cc1ccc(-c2c(C(=O)NN=Cc3sccc3C)nnn2-c2nonc2N)cc1
5.2	Cn1cccc1C=NN1CCN(Cc2ccccc2Cl)CC1
-72	CSCC[C@H](NC(=O)OC(C)(C)C)C(=O)NN=Cc1cc2ccc(C)cc2nc1Cl
-8.6	CCOC(=O)C(CC)C(C)=NNC(=O)c1ccccc1O (stereo not given)
-0.7	CN(N=Cc1cc([N+](=O)[O-])ccc1O)c1ccccc1
-2.2	O=C(NN=Cc1ccco1)c1cc(-c2ccc3ccccc3c2)n[nH]1
8.9	O=C(NN=Cc1cccs1)c1cccc2cc[nH]c12
4.2	CC(=NNC(=O)Cc1cccn1C)c1cccc2ccccc12
1.1	CCCn1c(=C(C#N)C#N)sc(=C2C=Cc3ccccc3N2CC)c1=O
-0.4	COc1cccc(C=NNC(=O)c2cc(-c3cccn3C)n[nH]2)c1O
-25	CSc1nsc(NN=Cc2ccc3c(c2)OCO3)c1C#N
4.7	COc1ccc(C=NNC(=O)c2ccc(Br)cc2)cc1CN1CCOCC1
-0.5	Nc1nnc(CC(=O)NN=Cc2ccc(-c3ccc(F)cc3)o2)s1
4.4	CC(=NNc1ccc([N+](=O)[O-])cc1[N+](=O)[O-])C(C)C(C)C (stereo not given)
5.8	CCOC(=O)c1ccc(N=C2C(=S)N(c3ccc(C(=O)OCC)cc3)C(=N)N2N=Cc2ccccc2)cc1
12	Cc1cccc(NN=Cc2ccncc2)c1
4.1	COc1ccc(C=Nn2c(C)nc3sc(C)c(C)c3c2=O)cc1OC
0.2	O=C(CN1CCCCCC1)NN=Cc1ccc2ccccc2c1
-2.0	C(=NNc1nc2ccccc2[nH]1)c1ccc2c(c1)OCCO2
-76	O=C(NN=Cc1ccc2ncccc2c1)c1cc(-c2cccs2)nc2ccccc12
-6.9	Cn1c(-c2ccccc2)c(C=NNC(=O)c2cccnc2)c2ccccc21
4.0	Cc1sc2nc(C)n(N=Cc3ccc(O)cc3)c(=O)c2c1C
11	CCN(CC)c1ccc(C=c2sc3nnc(-c4ccccc4C)n3c2=O)cc1
8.8	Cc1ccc(N2C(=O)CSC2=NC(=S)Nc2ccccc2)cc1
3.7	C=C(C)CNC(=S)NN=Cc1ccc([N+](=O)[O-])cc1
5.5	CCOc1ccc(NC(=O)CCC(=O)NN=C2CCCc3ccccc32)cc1
3.9	NC(=NOC(=O)c1ccc(Cl)cc1[N+](=O)[O-])c1cccnc1
3.7	Fc1cccc(C=NNc2ccccn2)c1
-11	Cc1ccc(-c2csc(NN=C/C=C/c3ccccc3)n2)cc1
8.5	COc1ccccc1NC(=O)C(=O)NN=Cc1cccs1
10	COc1cc(N2CN=c3sc(=Cc4ccccn4)c(=O)n3C2)cc(OC)c1OC
1.6	COc1ccc(CCN2C(=O)CSC2=NNC(=O)c2ccccc2F)cc1OC
-19	COc1ccc(C(=O)NN=Cc2ccc(OC)c(COc3c(F)c(F)cc(F)c3F)c2)cc1
2.2	CCCCCCC1C(=NO)CCC1C(=O)OC (stereo not given)
7.9	Cc1cc(C=NNC(=O)c2cc3ccccc3o2)c(C)n1C
2.9	CC(CC(=O)N1CCN(C=O)CC1)=NNC(=O)c1ccc(Cl)cc1
1.5	O=C(C[n+]1ccccc1)NN=Cc1ccc(C(=O)O)cc1
2.2	CC(=NNC(=O)c1cc2c(s1)CCC(C)C2)c1cccnc1 (stereo not given)
7.0	Cc1c(O)ccc(C=NNc2ncccc2[N+](=O)[O-])c1O
5.4	COc1ccc(C=NNC(=O)c2ccncc2)cc1[N+](=O)[O-]
-122	COc1ccc(-c2cc(C(=O)NN=Cc3cc(OC)c(OC)cc3OC)c3ccccc3n2)cc1
-0.4	COC(=O)c1scc(C)c1NN=C(C)c1ccc(F)cc1F
6.7	Cc1cccc(C(=O)Nc2ccc(C(=O)NN=Cc3ccco3)cc2)c1
0.8	COC(=O)NN=C1CCCc2ccccc21
6.7	CNC(=O)N(O)C1N(N=Cc2ccc(C)cc2)C(=S)SC1(C)C (stereo not given)
5.8	O=C(NN=Cc1ccc([N+](=O)[O-])o1)c1cn(-c2ccccc2)nc1-c1ccc(Cl)cc1
6.9	O=C(NN=Cc1ccccn1)c1[nH]c2ccc([N+](=O)[O-])cc2c1-c1ccccc1
-67	Nc1nc2ccccc2n1N=Cc1ccc(-c2ccccc2)o1
4.7	CCOc1cc(C=Nn2c(COc3ccccc3)n[nH]c2=S)ccc1O
3.4	O=C(COc1ccccc1-c1ccccc1)NN=Cc1cccc2ccccc12
4.3	COc1cc(C(=O)NCC(=O)NN=Cc2cccnc2)cc(OC)c1OC
-0.5	COc1ccc(-c2nn(-c3ccccc3)cc2C=NN=C(N)N)cc1OC
0.5	CCOC(=O)NN=C(C)c1ccc(C)o1
4.0	CCOC(=O)c1c(N=Cc2cccc([N+](=O)[O-])c2O)sc(C)c1C
6.7	COc1cccc(C=NNC(=O)c2ccc3nc[nH]c3c2)c1
11	O=C(NN=Cc1oc(O)c2ccccc12)c1ccccc1O
1.9	NC(=O)NN=Cc1cccc(C(F)(F)F)c1
2.6	O=C(C[n+]1ccccc1)NN=Cc1cccs1
0.2	O=C(CCC(=O)Nc1ccc(F)cc1)NN=Cc1cccnc1
3.9	Nc1nonc1C(=O)NN=Cc1cc(Br)ccc1O

(listing goes on)
UCH37 inh	structure
4.4	COc1ccccc1N1CCN(N=C(C)c2ccc(O)cc2)CC1
5.6	CC(=NNc1ccc(S(=O)(=O)N2CCOCC2)cc1[N+](=O)[O-])C(C)C
3.2	CCC(=O)Nc1ccc(C(=O)NN=Cc2c(C)[nH]c3ccccc23)cc1
2.7	C=C(C)Cn1c(SCC(=O)NN=Cc2ccccc2OCC(=O)O)nnc1-c1ccc(Br)cc1
14	COc1ccc(C=NNc2ccc(C(=O)O)cc2)cc1OC
0.7	CCN(CC)CC(=O)Nc1ccc(C(C)=NNC2=NCCN2)cc1

As a short view, some entries already given:
UCH37 inh	structure
-1.7	CCCOc1ccc(CCC(=O)NN=Cc2ccco2)cc1
0.6	COc1ccccc1OCC(=O)NN=C/C=C/c1ccc([N+](=O)[O-])o1
2.6	COC(=O)C(=NNc1ccccc1C)Sc1nnc(C(O)c2ccccc2)n1-c1ccccc1 (stereo not given)
2.9	CC(C)c1ccc(C=Nn2c(-c3ccccc3)n[nH]c2=S)cc1
10	CCC(=O)N(C)CCc1cc2c(c(OC)c1C=NNC(=O)c1ccncc1)OCO2
4.6	CCOC(=O)C(=NNc1ccc(Cl)cc1)Sc1nnc(-c2ccc(OC)cc2)n1C
15	O=C(O)c1cccc(-c2ccc(C=NNc3nn[nH]n3)o2)c1
-8.2	O=c1c2ccccc2nc(COc2ccccc2)n1N=Cc1ccc(O)cc1O
2.7	Oc1ccccc1C=NNc1ccccc1
1.4	COc1ccccc1C=NNC(=O)C(C)Cn1cnc2ccccc21 (stereo not given)
-7.8	COc1ccc2nc(C)cc(SCC(=O)NN=Cc3ccc(O)cc3O)c2c1
7.9	Nc1nonc1-n1nnc(C(=O)NN=Cc2ccc(O)cc2)c1CN1CCCCCC1
-91	CCCCOC(=O)c1cc(-c2ccc(C=Nn3cnnc3)o2)ccc1Cl
6.4	O=[N+]([O-])c1ccc(C2CCCCC2=NOCc2cccc(F)c2)c([N+](=O)[O-])c1 (stereo not given)
6.1	O=C(NN=Cc1cccs1)c1ccccn1
2.7	O=C(NN=Cc1ccc(-c2cccc([N+](=O)[O-])c2)o1)c1ccccc1O
3.7	O=S(=O)(N=C([O-])C[n+]1ccccc1)c1ccc(Cl)cc1
-0.5	COc1ccc(C=NNC(=S)Nc2ccccc2)cc1COc1ccc(F)cc1
1.5	O=C(CCc1ccccc1)NCC(=O)NN=Cc1ccc2c(c1)OCO2
-13	COC(=O)c1scc(C)c1NN=C(C)c1ccc(F)cc1
2.1	Cc1cc(-c2n[nH]c(=S)n2N=Cc2ccc(Cl)c([N+](=O)[O-])c2)n[nH]1
